Bioassay records from PubChem.
GIV Gai3 FP – blocks GIV peptide binding to rat Galpha-i3. Galpha-i3/FITC-GIV peptide fluorescence polarization, 90 min; hits give low values; scaled: aluminum fluoride 0%, vehicle 100%. P08753. percent of control (FP), % (test concentration not listed). 210,000 compounds, 0.42% hits;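 active = replicate mean at 85% of control or lower, very high polarization wells dropped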;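 note: wells of about 15 µL received 100 nL stock; the first replicate is given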
Target sequence (P08753 whole entry, looked up): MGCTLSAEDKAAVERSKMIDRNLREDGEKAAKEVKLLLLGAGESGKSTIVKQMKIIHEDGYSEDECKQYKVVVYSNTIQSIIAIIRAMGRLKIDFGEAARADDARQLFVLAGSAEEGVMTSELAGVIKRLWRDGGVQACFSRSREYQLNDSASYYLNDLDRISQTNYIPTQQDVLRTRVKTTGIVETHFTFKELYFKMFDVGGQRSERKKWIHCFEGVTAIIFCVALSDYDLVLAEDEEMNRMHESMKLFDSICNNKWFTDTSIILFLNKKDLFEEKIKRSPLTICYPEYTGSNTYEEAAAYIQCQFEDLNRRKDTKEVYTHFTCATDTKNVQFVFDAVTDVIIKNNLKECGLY
Sa growth inh – S. aureus growth inhibition. AID 720641. 170,000 compounds, 0.53% hits. relative growth, % (no concentration beside the values). S. aureus RN4220 growth, OD600, 20 h, 42 °C; hits give low values;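 active = growth at 42 °C up to 50% and 20 or more points under that at 30 °C, or under 10% at both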;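 note: 300 nL library stock went into each well; scaled to the means of positive and negative controls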
HCMV UL50-53 inh – inhibitors of HCMV UL50-UL53 nuclear egress complex interaction; HTRF UL50-UL53 interaction, normalized percent inhibition; inhibition, % (test concentration not listed); 190,000 compounds, 0.15% hits;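 active = both replicates at 50% or more, plus weaker picks with an unusually low signal ratio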;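 note: stock transfer was 100 nL into about 20 µL; 0% = negative control wells and 100% = wells with untagged competitor protein; inactives centre near -12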
Sa growth inh second temp – also measured in Sa growth inh; calls as there; relative growth, %; measured here: growth at 30 °C;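 optical density after 20 h as mean of two plates; 100% = untreated growth and lower means inhibition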
Starred values were filed as active, the others as inactive; nt = not tested or not shown; & = joins results of further samples. Compounds as they come; about 0.83% have a hit in one of these screens.

Key to letters – A = GIV Gai3 FP; B = Sa growth inh; C = Sa growth inh second temp; D = HCMV UL50-53 inh
Cc1ccc2[nH]cc(CCNC(=O)c3ccc4c(c3)nc(C)c(=O)n4Cc3ccccc3)c2c1
  A = 114	B = nt	C = nt	D = -1
COc1ccc(CCNC(=O)Cn2nnc(C(=O)Nc3cccc(C)c3C)c2N)cc1OC
  A = 98	B = 105	C = 88	D = -21
O=C(Cn1nc(-c2ccc(Cl)cc2)c2ccccc2c1=O)Nc1cccc(C(F)(F)F)c1
  A = 101	B = 111	C = 94	D = -31
Clc1ccc(-c2noc(-c3cccnc3NCc3ccccn3)n2)cc1
  A = 91	B = nt	C = nt	D = 2
CCc1nn(CC(=O)NCCc2ccc(OC)cc2OC)c(=O)c2cc3occc3n12
  A = 104	B = 95	C = 97	D = -5
Cc1ccc2c(=O)c(C(=O)c3cccc(Cl)c3)cn(CC(=O)NCc3ccc(F)cc3)c2n1
  A = 107	B = 96	C = 92	D = -51
CCOC(=O)c1cc(-c2c(Cl)cccc2Cl)no1
  A = 102	B = 98	C = 97	D = -8
CC1=C(c2cccc(Cl)c2)S(=O)(=O)NC1=O
  A = 93	B = 101	C = 93	D = -15
Cn1c(=O)c(=O)n(C)c2cc(S(=O)(=O)N3CCCC3C(=O)Nc3cccc(F)c3)ccc21 (stereo not given)
  A = 106	B = 111	C = 98	D = -6
CSc1ccc(-c2nc3c(C)cccn3c2Nc2ccc3c(c2)OCCO3)cc1
  A = 98	B = 106	C = 85	D = 3

Key to letters – A = GIV Gai3 FP; B = Sa growth inh; C = Sa growth inh second temp; D = HCMV UL50-53 inh
Cc1oc(-c2ccc(Cl)cc2)cc1C(=O)O/N=C(\N)Cc1nc2cccnc2n1C1CC1
  A = 160	B = 89	C = 78	D = -30
O=C1NC(=O)/C(=C\c2cc(Br)ccc2OCc2ccc(F)cc2)S1
  A = 102	B = nt	C = nt	D = -13
CCCCN1C(=O)c2c(-n3cccc3)c3cc(C)ccc3n2CC1(C)C(=O)NC1CCCC1 (stereo not given)
  A = 96	B = nt	C = nt	D = -14
COc1ccc(Br)cc1CNC(=O)c1cc(=O)[nH]c2ccc(S(=O)(=O)N3CCCCC3)cc12
  A = 101	B = 141	C = 81	D = nt
CCOC(=O)c1c(NC(=O)c2cccc([N+](=O)[O-])c2)sc(C(=O)Nc2ccc(C)c(Cl)c2)c1C
  A = 99	B = nt	C = nt	D = -13
CCNS(=O)(=O)c1ccc(OC)c(-c2noc(C)n2)c1
  A = 102	B = nt	C = nt	D = -22
COc1ccc(NC(=O)Cc2c(C(=O)O)[nH]c3ccccc23)cc1OC
  A = 106	B = 103	C = 99	D = -1
COc1ccc(NC(=O)CSc2ccc(-c3cccs3)nn2)cc1
  A = 100	B = 103	C = 79	D = nt
CC1CCCC(C)N1Cc1c(O)ccc2c(-c3ccccc3)cc(=O)oc12 (stereo not given)
  A = 99	B = 92	C = 80	D = -77
Oc1ccc(-c2cn3c(n2)SCC3)cc1
  A = nt	B = 69	C = 91	D = -1

Reprinted from the part before: 7 compounds, then new ones.
Key to letters – A = GIV Gai3 FP; B = Sa growth inh; C = Sa growth inh second temp; D = HCMV UL50-53 inh
COc1ccc(Br)cc1CNC(=O)c1cc(=O)[nH]c2ccc(S(=O)(=O)N3CCCCC3)cc12
  A = 101	B = 141	C = 81	D = nt
CCOC(=O)c1c(NC(=O)c2cccc([N+](=O)[O-])c2)sc(C(=O)Nc2ccc(C)c(Cl)c2)c1C
  A = 99	B = nt	C = nt	D = -13
CCNS(=O)(=O)c1ccc(OC)c(-c2noc(C)n2)c1
  A = 102	B = nt	C = nt	D = -22
COc1ccc(NC(=O)Cc2c(C(=O)O)[nH]c3ccccc23)cc1OC
  A = 106	B = 103	C = 99	D = -1
COc1ccc(NC(=O)CSc2ccc(-c3cccs3)nn2)cc1
  A = 100	B = 103	C = 79	D = nt
CC1CCCC(C)N1Cc1c(O)ccc2c(-c3ccccc3)cc(=O)oc12 (stereo not given)
  A = 99	B = 92	C = 80	D = -77
Oc1ccc(-c2cn3c(n2)SCC3)cc1
  A = nt	B = 69	C = 91	D = -1
CC1CN(C2=NCCN2S(=O)(=O)c2ccc(Cl)cc2)CC(C)O1 (stereo not given)
  A = 100	B = 102	C = 91	D = -14
O=C(COC(=O)C1CCCCC1)Nc1ccc2c(c1)OCCO2
  A = nt	B = 86	C = 101	D = 5
COc1cccc(CNC(=O)c2c(C)oc3ncnc(N4CCOCC4)c23)c1
  A = 100	B = 82	C = 83	D = nt
O=C(CSc1ncccn1)NC(=O)NCc1ccccc1
  A = nt	B = 84	C = 90	D = -9
CCOC(=O)/C(C#N)=C/Nc1cc(C)no1
  A = 104	B = 79	C = 28	D = 3
O=C(/C=C/c1ccccc1)Nc1ccc2[nH]c(=O)[nH]c2c1
  A = nt	B = 96	C = 82	D = -21
CC(N)CCc1ccco1 (stereo not given)
  A = 104	B = 100	C = 84	D = 11
CCOC(=O)c1cc(S(=O)(=O)NCCC(=O)NC(C)(C)C)cn1C
  A = 102	B = nt	C = nt	D = -13
COC(=O)C1=Cc2cc(OC)ccc2OC1
  A = 102	B = nt	C = nt	D = -65
CN(C)c1ccc(C(CNS(=O)(=O)c2ccc(Br)cc2)N2CCOCC2)cc1 (stereo not given)
  A = 99	B = 101	C = 92	D = nt

Filtered by structure: the compounds so far with an aryl thioether with sulfur outside any ring (three)
Key to letters – A = GIV Gai3 FP; B = Sa growth inh; C = Sa growth inh second temp; D = HCMV UL50-53 inh
CSc1ccc(-c2nc3c(C)cccn3c2Nc2ccc3c(c2)OCCO3)cc1
  A = 98	B = 106	C = 85	D = 3
COc1ccc(NC(=O)CSc2ccc(-c3cccs3)nn2)cc1
  A = 100	B = 103	C = 79	D = nt
O=C(CSc1ncccn1)NC(=O)NCc1ccccc1
  A = nt	B = 84	C = 90	D = -9

(cont.)
Key to letters – A = GIV Gai3 FP; B = Sa growth inh; C = Sa growth inh second temp; D = HCMV UL50-53 inh
CCn1cc(/C=C(\NC(=O)c2ccc(C)cc2)C(=O)NCCCn2ccnc2)c2ccccc21
  A = 102	B = 104	C = 80	D = -38
Cc1cccc(NC(=O)N2CCSc3ncccc32)c1
  A = 105	B = nt	C = nt	D = -4
COc1cc(NC(=O)CN2CCN(c3ccc(F)cc3)CC2)cc(OC)c1
  A = 109	B = 102	C = 90	D = nt
O=C(COc1ccc(Cl)cc1)NCCCN1CCN(c2ccccc2)CC1
  A = 106	B = 107	C = 83	D = nt
CCOC(=O)c1sc2ccccc2c1S(=O)(=O)N1CCN(c2ccccc2)CC1
  A = 100	B = 101	C = 93	D = nt
COc1ccccc1-c1nnc2sc(-c3cc4ccccc4[nH]3)nn12
  A = 115	B = nt	C = nt	D = -9
Fc1ccccc1-c1nnc2sc(/C=C/c3ccccc3)nn12
  A = 104	B = nt	C = nt	D = -64
COc1ccc(S(=O)(=O)N2Cc3ccccc3CC2C(=O)Nc2cccc(C)c2)cc1OC (stereo not given)
  A = 105	B = 109	C = 97	D = -23
COc1ccc(-c2nc3ccccc3o2)cc1
  A = 100	B = 100	C = 97	D = -3
COc1ccc(CNC(=O)c2cnc(OC)cc2C(F)(F)F)c(OC)c1
  A = 102	B = 94	C = 104	D = 3

Key to letters – A = GIV Gai3 FP; B = Sa growth inh; C = Sa growth inh second temp; D = HCMV UL50-53 inh
CCOc1cccc(NC(=O)CCc2c(C)nc3cc(-c4cc(OC)cc(OC)c4)nn3c2C)c1
  A = 97	B = nt	C = nt	D = 11
Nc1c2c(=O)[nH]c(O)cc2nn1-c1ccccc1
  A = 104	B = 102	C = 70	D = -3
Oc1c(C(c2ccco2)N2CCOCC2)sc2ncnn12 (stereo not given)
  A = 107	B = 106	C = 96	D = -12
Cc1c(C)n(-c2ccccc2)c2ncn(CCC(=O)NC3CCS(=O)(=O)C3)c(=O)c12 (stereo not given)
  A = 104	B = nt	C = nt	D = 2
C=CCNC(=O)CSc1nc(=O)n2cc(C)ccc2n1
  A = 98	B = 87	C = 92	D = -28
O=C(COc1cc(O)c2c(=O)c3ccccc3oc2c1)c1ccc(Br)cc1
  A = 94	B = nt	C = nt	D = -4
COc1ccc(-c2ccc(C#N)c(Cl)n2)cc1
  A = 99	B = nt	C = nt	D = -14
COc1ccc(CCNS(=O)(=O)c2ccc(F)c(C(=O)Nc3ccc(Cl)cc3)c2)cc1OC
  A = 106	B = 112	C = 98	D = nt
Cc1cccc(-n2c(SCC(=O)Nc3ccc(C)c(C)c3)nc3n[nH]c(C)c3c2=N)c1
  A = 97	B = 83	C = 94	D = nt
CSc1ccccc1NC(=O)c1ccccc1
  A = nt	B = 101	C = 77	D = -30

Key to letters – A = GIV Gai3 FP; B = Sa growth inh; C = Sa growth inh second temp; D = HCMV UL50-53 inh
COC(=O)c1ccc(Cn2c(SCC(=O)Nc3ccc(F)cc3)nc3ccccc32)cc1
  A = 99	B = 85	C = 75	D = nt
CCOc1cc2[nH]c(=O)n(Cc3ccc(C(=O)N4CCN(c5ccccc5)CC4)cc3)c(=O)c2cc1OCC
  A = 107	B = 94	C = 99	D = nt
COc1cccc(C(=O)Nc2c3c(nn2-c2ccc(Cl)cc2)CS(=O)(=O)C3)c1
  A = 103	B = 109	C = 93	D = nt
CSc1nsc(SC)c1C(=O)Nc1ccc(-c2csnn2)cc1
  A = 97	B = 102	C = 95	D = 2
O=c1oc2c(-c3cc(C(F)(F)F)ccc3Cl)cc(O)cc2s1
  A = 101	B = 34	C = 30	D = nt
Cc1cccc(N2CCN(c3ccc(C(=O)O)cc3NC(=O)c3ccccc3F)CC2C)c1 (stereo not given)
  A = 108	B = 53	C = 52	D = nt
Cc1ccc(NC(=O)CN(C)C(=O)CSc2nc3ccccc3c(=O)n2CCO)cc1
  A = nt	B = 84	C = 91	D = -12
Cc1ccc(-c2cc(C(=O)O)c3c(-c4ccc(C)cc4)[nH]nc3n2)cc1
  A = 109	B = nt	C = nt	D = -37
CCCN(C(=O)c1cc2c(s1)-c1ccccc1OC2)c1ccc(C(C)C)cc1
  A = 101	B = 80	C = 80	D = 3
Cc1ccccc1CSc1n[nH]c(=O)c2cc(-c3ccc(F)cc3)nn12
  A = 106	B = nt	C = nt	D = 1

Key to letters – A = GIV Gai3 FP; B = Sa growth inh; C = Sa growth inh second temp; D = HCMV UL50-53 inh
CCCNC(=O)Cn1cnc2sc(C(=O)N3CCC(Cc4ccccc4)CC3)c(C)c2c1=O
  A = 103	B = 94	C = 97	D = nt
N#Cc1c(NC(=O)CCn2cnc3ccccc3c2=O)oc(-c2ccccc2)c1-c1ccccc1
  A = 108	B = 107	C = 108	D = 0
CCC(C)C(=O)NCCc1ccccc1 (stereo not given)
  A = nt	B = 108	C = 92	D = -7
CNC(=O)c1c(NC(=O)c2ccc(S(=O)(=O)N3CCCC(C)C3)cc2)sc2c1CCC2 (stereo not given)
  A = 105	B = 82	C = 90	D = nt
Cc1oc2ccc(OC(=O)N3CCOCC3)cc2c1C(=O)OC(C)C
  A = 100	B = 89	C = 93	D = -14
CCN1C(=O)NC(c2ccc(Cl)cc2)C(C(=O)OC)=C1C (stereo not given)
  A = 106	B = 104	C = 116	D = 11
COC(=O)c1cc(S(=O)(=O)N2CCN(c3ccc(F)cc3)CC2)cn1C
  A = 106	B = 102	C = 94	D = nt
COC(=O)CC1C(=O)NCCN1C(=O)CSc1nnc(Nc2ccc(OC)cc2)s1 (stereo not given)
  A = nt	B = 95	C = 95	D = -3
COc1ccc(S(=O)(=O)N2CCCN(CC(=O)Nc3ccc(NC(C)=O)cc3)CC2)cc1
  A = 103	B = 85	C = 82	D = -4
CCC(=O)N1CCc2cc(Br)cc(S(=O)(=O)N3CCCC(C(=O)Nc4cccc(F)c4)C3)c21 (stereo not given)
  A = 106	B = 107	C = 95	D = 4

Key to letters – A = GIV Gai3 FP; B = Sa growth inh; C = Sa growth inh second temp; D = HCMV UL50-53 inh
O=C(CCC1N=C2c3ccccc3N=C(SCc3ccccc3Cl)N2C1=O)NCCc1ccccc1 (stereo not given)
  A = 109	B = 94	C = 99	D = 2
CSc1ccc(C(=O)Nc2sccc2C#N)cc1
  A = 103	B = 97	C = 82	D = -47
Cc1c(Cl)cccc1-n1ncc(C(=O)Nc2ccc(F)cc2F)c1C1CCN(C(=O)OC(C)(C)C)CC1
  A = 106	B = 78	C = 90	D = nt
CNCC(=O)N1CCCC1
  A = nt	B = 87	C = 94	D = -19
O=C(C1CC2C=CC1C2)N1CCCc2ccccc21 (stereo not given)
  A = nt	B = 86	C = 93	D = -28
Cc1cccc(NC(=O)C(Cc2ccccc2)N2Cc3ccccc3C2=O)n1 (stereo not given)
  A = 103&104	B = 93	C = 78	D = -34&-5
COC(=O)c1ccccc1NC(=O)c1cc(=O)c2cc(C)ccc2o1
  A = 95	B = nt	C = nt	D = -7
COC(=O)C1=C(N)c2c(F)cccc2C1(C#N)c1ccccc1 (stereo not given)
  A = 104	B = nt	C = nt	D = -16
